# Vif TR-FRET – inhibitors of Vif binding to APOBEC3G peptide, primary screen, biochemical, TR-FRET, GST-Vif 1-94, biotin-A3G peptide, dose response retest (AID 1117319); TR-FRET GST-Vif / biotin-A3G peptide binding; higher % means a stronger effect; test concentration not given here; strong numbers were not always called active; one-dose inhibition, %; IC50 in µM for titrated hits; 260,000 tested, 0.57% active;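 active = above the screen mean plus three standard deviations and confirmed in dose response; inconclusive = results disagree or hit not tested in dose response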;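 also: Vif residues 1-94 fused to GST binding biotinylated APOBEC3G peptide 110-148; 0% = full assay without inhibitor and 100% = GST in place of GST-Vif; retest series ran down from 100 µM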
# ALR inh – inhibitors of human sulfhydryl oxidase ALR; AID 485317; P55789; purified ALR, DTT oxidation, H2O2 HRP-luminol luminescence; 290,000 tested, 3.8% active; inhibition, % (no concentration beside the values);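 active = mean and each replicate at 75% or more; inconclusive = only one of the two met; inactive = neither met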;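 also: stock transfer was 7.5 nL into about 7.5 µL; 0% = neutral wells and 100% = wells with inactivated enzyme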
# Target sequence (P55789 whole entry, looked up): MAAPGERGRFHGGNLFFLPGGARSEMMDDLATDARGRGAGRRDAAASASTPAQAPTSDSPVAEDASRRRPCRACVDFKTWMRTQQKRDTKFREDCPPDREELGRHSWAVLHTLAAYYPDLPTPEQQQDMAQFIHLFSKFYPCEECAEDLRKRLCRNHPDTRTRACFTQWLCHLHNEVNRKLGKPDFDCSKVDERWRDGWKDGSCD
# rRNA inh HTS – inhibits bacterial ribosomal RNA function over humanized ribosomes. E. coli WT GFP vs humanized-ribosome RFP mutants, fluorescence, 24 h; stronger effect = lower value; DMSO median 0, no signal -100. 350,000 tested, 1.6% active. GFP signal change (wild-type ribosome), % (concentration not given with the values). AID 720706;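 active = significant combined selectivity score with lowered wild-type GFP, culture density cut under 30%, mutant RFP and density less affected; inactive = any of these conditions unmet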; also: one replicate is shown; some compounds called inactive have numbers as strong as hits
# Ecoli growth – inhibitors of Escherichia coli growth | OD600, 23 h; stronger effect = lower value | 330,000 tested, 0.21% active | OD600 absorbance (test concentration not listed) | AID 1053175;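 active = OD600 absorbance below the run mean of sample wells minus 3.6 SD, in any replicate, cut at about 0.56 in these data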;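 also: stock transfer was 300 nL into about 60 µL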
# AF4-AF9 inh – MLL-AF4/AF9 protein interaction inhibition; 350,000 tested, 0.47% active; inhibition, % at 10 µM; AlphaScreen, biotin-AF4 peptide binding to FLAG-AF9; AID 651704; P42568;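 active = every replicate reaching a set inhibition limit, whatever the replicate mean, cut at about 25% in these data; inconclusive = mean inhibition reaches that limit but some replicates miss it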;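 also: 0% = plate neutral control median and 100% = total signal loss; the record names both 10 and 1 µM as test concentration; the first replicate is given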
# FGF22 binding – shifts melting point of recombinant human FGF22; recombinant FGF22 thermal shift, SYPRO orange fluorescence; percent of sucrose octasulfate shift, DMSO zero; calls only at 9.99 µM; 340,000 tested, 1.5% active;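 active = melting point raised past a set limit in the mean and every replicate; inconclusive = no clear call; three in four hits are not shown here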
# Target sequence (Q9HCT0 whole entry, looked up): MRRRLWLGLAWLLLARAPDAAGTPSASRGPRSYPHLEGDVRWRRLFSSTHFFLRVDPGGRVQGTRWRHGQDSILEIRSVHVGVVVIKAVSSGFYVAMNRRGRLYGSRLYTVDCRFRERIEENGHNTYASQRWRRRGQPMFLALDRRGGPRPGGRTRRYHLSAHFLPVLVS
# HNF4A DNA FP – change in binding of human HNF4 alpha to DNA; P41235; HNF4a-FITC DNA binding, fluorescence polarization, 1 h; activity change, % at 10 µM; 360,000 tested, 0.3% active; in the data active = activity change above about 30%, passing the limit was not always enough;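 also: controls were the assay level and a saturating level of protein; the project sought stronger binding though the title names inhibitors; some compounds called inactive have numbers as strong as hits; positive values seem to mean higher polarization but the record does not say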
# Target sequence (P41235 whole entry, looked up): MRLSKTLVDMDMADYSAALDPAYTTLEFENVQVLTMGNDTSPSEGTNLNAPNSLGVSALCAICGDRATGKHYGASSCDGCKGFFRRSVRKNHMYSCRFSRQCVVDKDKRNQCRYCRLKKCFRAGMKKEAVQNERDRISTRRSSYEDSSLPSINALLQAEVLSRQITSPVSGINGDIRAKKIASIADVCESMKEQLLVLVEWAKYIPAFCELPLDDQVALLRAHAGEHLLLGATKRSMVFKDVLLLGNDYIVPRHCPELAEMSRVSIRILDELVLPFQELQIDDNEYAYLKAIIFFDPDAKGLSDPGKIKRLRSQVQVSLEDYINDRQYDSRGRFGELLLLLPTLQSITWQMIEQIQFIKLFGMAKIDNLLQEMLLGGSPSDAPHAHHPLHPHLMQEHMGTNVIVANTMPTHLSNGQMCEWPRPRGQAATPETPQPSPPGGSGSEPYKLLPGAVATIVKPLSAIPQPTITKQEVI
# rRNA inh HTS OD600 – second read-out of rRNA inh HTS, no call of its own (marks repeat the call); OD600 change, %; measured here: OD600 growth;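 optical density of the mix in the first replicate; 0 = DMSO median and -100 = no signal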
# rRNA inh HTS RFP – second read-out of rRNA inh HTS, no call of its own (marks repeat the call); RFP signal change, %; measured here: RFP humanized mutant strains;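 first replicate; 0 = DMSO median and -100 = no signal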
# Numbers without * were called inactive; i = inactive; ? = inconclusive; / = no result given; & = joins results of further samples. Some of the compounds tested; the hit share may differ from the screen's.
SMILES,Vif TR-FRET,ALR inh,rRNA inh HTS,rRNA inh HTS OD600,rRNA inh HTS RFP,Ecoli growth,AF4-AF9 inh,FGF22 binding,HNF4A DNA FP
CCOC(=O)N1CCC(N2CCN(S(=O)(=O)c3ccc(NC(C)=O)cc3)CC2)CC1,5%,1,0,-3,-2.4,0.65,-13,/,-0.6
CCCCCCN1C[C@@H](n2cc(COC(=O)c3ccccc3)nn2)[C@H](O)C[C@@H]1c1ccc(Cl)cc1,1%,/,3,3,-3.7,/,-3.9,i,0.2
CN1CCN(S(=O)(=O)c2ccc(NC(=O)COc3ccccc3Cl)cc2)CC1,3%,-7,7,11,-2.5,0.62,-3.7,i,0.4
COc1ccc(S(=O)(=O)N(C)C[C@H]2Oc3c(NC(=O)Nc4ccc(F)cc4)cccc3C(=O)N([C@@H](C)CO)C[C@@H]2C)cc1,/,/,-6,-4,-2.3,/,3.4,i,/
COC(=O)C1=CN(c2ccc(OC)cc2)C=C(C(=O)OC)C1c1ccc(C)c([N+](=O)[O-])c1,-8%,65,/,/,/,0.69,/,/,0.2
CCCC1NC(=O)c2cccnc2-n2c1nc1ccc(C)cc1c2=O (centres undefined),8%,/,6,8,-1.5,/,4.6,i,5.7
C[C@@H]1CCCCO[C@H](CN(C)C(=O)CCCN(C)C)[C@H](C)CN([C@@H](C)CO)C(=O)c2cc(NC(=O)C3CCCCC3)ccc2O1,/,/,0,5,-1.1,/,1.1,i,/
CCCCOC(=O)c1ccc(NC(=O)c2c(N)n(C)c(=O)[nH]c2=O)cc1,/,11,9,13,2.9,0.69,-5.8,i,/
CC(=O)c1c(C)n(-c2ccc(C)cc2C)c2ccc(O)cc12,-3%,3,-18,-18,-0.2,0.63,-1.1,i,-0.3
COc1cccc(/C=C/C(=O)NCCc2ccc3c(c2)OCCO3)c1,/,-3,/,/,/,0.71,-6.3,i,3.9
COc1cccc(C2c3c(oc4ccccc4c3=O)C(=O)N2c2ccccn2)c1 (centres undefined),7%,-10,11,19,-1.0,0.72,-2.2,i,4.4
NS(=O)(=O)c1ccc(CNC(=O)CNC(=O)c2ccc(Br)o2)cc1,-1%,6,1,-1,-0.4,0.69,-0.8,i,2.3
COC(=O)c1ccccc1NC(=O)CSCC(=O)Nc1ccccc1,69%,-2,/,/,/,0.71,/,/,0.3
Fc1ccc(-n2nnc(-c3cnc4ccccc4c3)n2)cc1,-6%,-1,-2,11,-15,0.73,-2.4,i,0.6
Cc1ccccc1NC(=O)NCCc1ccc(Cl)cc1,2%,/,14,10,-2.2,0.73,1.9,i,1.4
CCOc1ccc(C(=O)CCC(=O)N2CCC(C(=O)OC)CC2)cc1,-5%,-1,0,4,2.6,0.67,0.3,i,19
C[C@H](CO)N1C[C@H](C)[C@@H](CN(C)C(=O)Nc2ccc3c(c2)OCO3)Oc2ccc(NC(=O)NC3CCCCC3)cc2C1=O,/,-9,-8&-4,-4&5,-4.0&-7.0,0.77,-1.2&0.7,i,6.6
Cc1cc(=O)[nH]c(N/N=C/C(C)c2ccccc2)n1 (centres undefined),1%,6,12,7,-2.8,/,-1.4,i,-0.5
CC(C)(C)OC(=O)N1CCC[C@H]1c1nnc(SCc2ccc(Cl)cc2Cl)o1,5%,-12,/,/,/,0.73,/,/,-4.7
CCC/C(=N\NC(=O)c1ccco1)c1ccc(Cl)s1,/,-5,-2,-3,-3.6,/,0.2,i,1.5
COc1cc(NC(=O)c2ccco2)c(OC)cc1NC(=O)Nc1cccc(Cl)c1,2%,-16,-11,-8,8.8,0.68,?,i,5.7
CCc1nnc(NC(=O)CN2C(=O)NC3(CCCC3)C2=O)s1,4%,5,10,9,-1.0,0.69,-0.4,i,0.0
C/C=C/c1cnc2c(c1)C(=O)N([C@H](C)CO)C[C@@H](C)[C@H](CN(C)C(=O)Nc1c(C)noc1C)O2,/,/,3,3,-5.0,/,-2.4,i,/
COC(=O)C1=C(CS(=O)(=O)c2ccccc2)NC(=O)NC1c1ccc(O)cc1 (centres undefined),-5%,4,6,9,0.5,0.64,-0.9,i,-2.3
Cn1ccnc1SCC(=O)Nc1sccc1C#N,8%,5,/,/,/,0.73,/,/,5.3
Cc1nc2ccc(S(=O)(=O)NCC(=O)NCCc3ccc(Cl)cc3)cc2s1,/,-20,8,0,1.0,0.67,0.6,i,-2.6
CO[C@@H]1CC[C@@H]2CCN(C)C(=O)[C@H](C)N(C)C(=O)c3cccc(C#N)c3OC[C@H]1O2,/,/,0,6,-1.6,/,21,i,/
C/C1=C\CCC2C(/C=C(\C)CC1)OC(=O)C2CN1CCCCC1 (centres undefined),-3%,-12,1,11,0.3,/,1.7,i,-1.6
O=C(NCC[C@H]1CC[C@H](NS(=O)(=O)Cc2ccccc2)[C@@H](CO)O1)C1CCOCC1,/,/,2,0,-2.1,/,0.0,i,/
COc1ccc(NC(=O)c2ccc3[nH]c(C)c(C)c3c2)cc1,6%,17,-25*,-14*,-8.5*,0.67,4.1,i,1.7
C[C@H]1CN([C@@H](C)CO)S(=O)(=O)c2ccc(C#CCC3CCCC3)cc2O[C@H]1CN(C)C(=O)CN(C)C,/,/,-19,-64,28,/,10,i,/
O=C(Cn1cnc([N+](=O)[O-])c1)Nc1ccc(Cl)cc1Cl,/,/,5,-15,15,/,-0.2,i,-2.1
S=C(NCC1CCCO1)Nc1ccc(Cl)cc1Cl (centres undefined),-3%,-1,/,/,/,0.65,/,/,-1.0
COc1ccc(-n2nnnc2SCc2nc(N)nc(N3CCOCC3)n2)cc1,6%,-9,/,/,/,0.73,/,/,3.6
O=C([C@H]1N[C@H]2c3ccc(C4=CCCC4)c(=O)n3C[C@H]2[C@@H]1CO)N1CCc2ccccc2C1,/,/,-2,-2,1.4,/,0.4,i,/
CC(C)(C)OC(=O)NCCC(=O)Oc1ccc2ccc(=O)oc2c1,-1%,13,/,/,/,/,/,/,1.2
O=C(NCc1ccncc1)c1cccc(S(=O)(=O)Nc2ccc(F)cc2)c1,6%,/,4,3,-1.9,0.62,0.6,i,2.5
COc1ccc(NC(=O)COC(=O)CC2CCCC2)cc1Cl,5%,1,-8,-9,3.8,0.72,-0.9,i,-1.7
CCN(C(=O)COC(=O)c1ccc(F)c(S(=O)(=O)N2CCOCC2)c1)C1CCS(=O)(=O)C1 (centres undefined),0%,1,10,2,-3.5,0.72,-1.2,i,3.4
CC1=C(C(=O)Nc2ccccc2)C(c2cc(CN3CCOCC3)cs2)C2=C(CCCC2=O)N1 (centres undefined),6%,-71,14,2,2.7,0.7,0.0,i,0.0
C/C(=N\NC(=O)c1ccccc1)c1ccc(-n2ccnc2)cc1,/,-1,8,5,-0.6,/,1.2,/,3.4
CC(C(=O)N1CCc2ccccc2C1)N(c1ccccc1)S(C)(=O)=O (centres undefined),/,3,0,-3,-0.6,0.69,3.1,i,3.3
COc1cc(CC(=O)OCC(=O)Nc2ccc(N3CCOCC3)cc2)cc(OC)c1OC,7%,9,10,5,1.3,0.7,1.3,/,-1.6
C[C@@H]1CN([C@H](C)CO)C(=O)c2cc(NC(=O)CCC(F)(F)F)ccc2O[C@@H](C)CCCCO[C@H]1CN(C)S(=O)(=O)c1ccccc1,/,/,2,4,-1.5,/,-4.8,i,/
CC(=O)N(C)C[C@H]1Oc2cc(-c3ccccc3)ccc2S(=O)(=O)N([C@@H](C)CO)C[C@H]1C,/,/,-2,-7,-1.8,/,0.3,i,/
CCCc1[nH]n(-c2ccc(F)cc2)c(=O)c1C=NCC1CCCO1 (centres undefined),1%,/,4,7,0.9,0.76,-0.9,i,-1.9
COc1ccc(OC)c(CNC(=O)C2CCN(S(=O)(=O)N3CCCCC3)CC2)c1,-5%,-1,-6,-5,-0.1,0.7,-5.9,i,-0.3
C[C@H]1CN([C@@H](C)CO)C(=O)c2ccccc2-c2ccccc2CO[C@H]1CN(C)C(=O)c1ccncc1,/,/,3,7,0.5,/,-3.6,i,/
O=C(C[C@H]1C=C[C@@H](NC(=O)c2ccc(F)cc2)[C@H](CO)O1)NCc1ccncn1,/,/,1,-4,-0.9,/,-7.1,i,/
COCC(C)NC(=O)COCc1cc(-c2ccc3c(c2)OCO3)on1 (centres undefined),-8%,6,3,10,0.0,0.67,-2.7,i,1.8
CNC(=O)c1c(C)[nH]c(=S)c(C#N)c1-c1ccco1,/,/,11,12,6.4,0.7,-12,i,1.5
COc1ccccc1C(=O)NCC(=O)NNC(=O)C1COc2ccccc2O1 (centres undefined),-8%,2,4,6,-1.2,0.62,-2.2,i,-1.4
O=C1C(=Nc2cccc(Cl)c2)CC(c2ccc(Cl)cc2)N1c1cccc(Cl)c1 (centres undefined),18%,-3,15,6,5.0,0.67,1.2,i,-3.5
C/C(=N\OCc1nc2ccccc2c(=O)n1/N=C/c1cc(C)cc([N+](=O)[O-])c1O)c1ccccc1,?,2,-4,0,2.3,/,5.7,i,-1.0
O=C(NC1CCCCC1)N[C@H]1CC[C@@H](CCNS(=O)(=O)c2ccc(Cl)cc2)O[C@@H]1CO,/,/,-1,6,1.9,/,1.2,i,/
Cn1nccc1C(=O)Nc1nnc(C2CC2)s1,/,0,2,3,-4.9,0.67,-1.4,i,-0.4
O=C(Cc1ccc(F)cc1)Nc1nnc(SCC(=O)N2CCCCC2)s1,-8%,-1,-7,5,-0.1,/,-0.4,i,0.8
O=C1CSC(=S)N1c1ccc(O)cc1,-4%,91*,0,-2,63,0.55,0.4,i,-1.4
CO[C@H]1CN(C)C(=O)c2ccc(NC(=O)Nc3ccc(C(F)(F)F)cc3)cc2OC[C@H](C)NC[C@@H]1C,/,/,-30,-57,43,/,?,i,/
CCC(=O)N(Cc1ccco1)Cc1cc2cccc(C)c2n2nnnc12,/,/,25,5,1.0,0.68,-2.2,i,1.9
# Next records follow:
SMILES,Vif TR-FRET,ALR inh,rRNA inh HTS,rRNA inh HTS OD600,rRNA inh HTS RFP,Ecoli growth,AF4-AF9 inh,FGF22 binding,HNF4A DNA FP
CCc1ccc(NC(=O)C(C)OC(=O)C2CCN(c3ccc(C(F)(F)F)cn3)CC2)cc1 (centres undefined),-2%,1,9,-7,-2.3,0.7,-1.1,i,-2.4
O=C(C[C@H]1CC[C@@H]2[C@H](COC[C@@H](O)CN2CCC(F)(F)F)O1)NCc1ccc2c(c1)OCO2,/,/,-2,-1,-3.8,/,0.4,i,/
O=C(NCc1ccccn1)C1CCCN(S(=O)(=O)c2cccc3nsnc23)C1 (centres undefined),4%,-5,/,/,/,0.72,/,/,-0.2
CC1(C)C=C(c2ccc(O)cc2)CC(C)(C)N1,1%,48,/,/,/,0.65,/,/,4.8

# Screens from PubChem.
